PINK1 expr mod – changes PINK1 expression; Potency, µM (titrated, usually from 76.6 µM), inactives show at the top dose activation (PINK1 increase), hits mostly activators; 410,000 compounds, 0.2% hits; AID 624263; PINK1 immunofluorescence, high-content cytometry, 24 h; active = well fitted activation curve with a large enough effect; inconclusive = small, poorly fitted or top-dose-only effect; inactive = flat fitted curve, though single readings scatter; cell line not stated here;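 also: potency is read from the fitted curve at half-maximal effect; % of control where 0% means no effect; nearly all actives have a fitted effect of over 65% in size; a mitochondrial uncoupler was the plate control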
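A stable cell line was treated with compounds at 5 concentrations for 24 hours, with CCCP as control. PINK1 levels and mitochondrial localization were measured by immunofluorescence with mitochondrial, cell and nuclear markers after fixation, read by laser-scanning cytometry.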
TRPML1 inh – blocks the human TRPML1 channel | 390,000 compounds, 0.02% hits | TRPML1-inducible cells, Ca2+ dye fluorescence, FDSS; stronger effect = lower value; inhibition of EC80 agonist-evoked calcium signal | activity change, negative = inhibition, % (concentration not given with the values); in the data active means activity change below about -50%; inconclusive means about -30% to -50%; inactive means above about -30%;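 also: stimulus is agonist 54-4 at its EC80 concentration; % is scaled to controls: 0 for no effect and ±100 for the full control effect; the text of the record puts the active cut at -80%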
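Tet-induced TRPML1-DL cells loaded with Ca8 no-wash calcium dye were read kinetically on FDSS. Compound addition was followed by EC80 agonist 54-4 (4 uM final); inhibition was read over 110 s.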
D2 agonist – human D2 receptor agonism in beta-arrestin assay; P14416; DiscoveRx PathHunter D2 beta-arrestin, luminescence, 90 min; 100% = 57 uM dopamine signal; activation, % (no concentration beside the values); 360,000 compounds, 0.084% hits; AID 624465; in the data active = activation above about 40%; inconclusive = about 15% to 40%; inactive = below about 15%; also: compound concentration not given in the record; the text of the record calls up to 30% inactive
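Agonist mode: compounds alone added to overnight-plated D2 PathHunter cells for 90 min at 37 C, with 57 uM final dopamine (EC100) defining full response. Beta-arrestin recruitment detected by chemiluminescent reagent, read after 1 h at ambient temperature.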
D2 PAM – potentiates the human D2 dopamine receptor allosterically | P14416 | potentiation, % (test concentration not listed) | 360,000 compounds, 0.23% hits | DiscoveRx D2 beta-arrestin cells, luminescence, 90 min; 100% = 57 uM dopamine signal; active = potentiation of 50% or more; inconclusive = 30% to 50%; inactive = 30% or less;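 also: compound concentration not given in the record; tested on top of an EC20 dose of dopamine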
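PathHunter beta-arrestin assay in DiscoveRx D2 cells. Compounds were added with an EC20 of dopamine (50 nM final) for 90 min at 37 deg C. Luminescence was read 1 h after detection reagent, with 57 uM dopamine as the EC100 control.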
TRPML1 agonist – activates the human TRPML1 channel. Q9GZU1. TRPML1-expressing cells, Ca2+ dye fluorescence, FDSS; host cell line not named in the record; reference of the full effect not given here. activation, % (concentration not given with the values). 410,000 compounds, 0.12% hits. AID 624414; in the data active = activation above about 50%; inconclusive = about 30% to 50%; inactive = below about 30%; also: 0% is about no effect; the text of the record puts the active cut at 80%
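Tet-induced TRPML1-DL cells, 1,500 per well, cultured overnight, were loaded with a no-wash Ca2+ dye for 45–90 min. Calcium fluorescence was recorded on the FDSS for 110 s after compound addition, before the EC80 agonist (4 uM 54-4) was added.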
Six1-Eya2 blk – Six1/Eya2 interaction inhibition. activity change, % (concentration not given with the values). AlphaScreen GST-Six1/His-Eya2 binding, biochemical; stronger effect = lower value; control for the full effect not named in the record. Q15475+O00167. 360,000 compounds, 0.56% hits. AID 651725; in the data active = activity change below about -65%; inconclusive = about -30% to -65%; inactive = above about -30%; also: % is scaled to controls: 0 for no effect and ±100 for the full control effect
Target sequence (O00167 whole entry, looked up): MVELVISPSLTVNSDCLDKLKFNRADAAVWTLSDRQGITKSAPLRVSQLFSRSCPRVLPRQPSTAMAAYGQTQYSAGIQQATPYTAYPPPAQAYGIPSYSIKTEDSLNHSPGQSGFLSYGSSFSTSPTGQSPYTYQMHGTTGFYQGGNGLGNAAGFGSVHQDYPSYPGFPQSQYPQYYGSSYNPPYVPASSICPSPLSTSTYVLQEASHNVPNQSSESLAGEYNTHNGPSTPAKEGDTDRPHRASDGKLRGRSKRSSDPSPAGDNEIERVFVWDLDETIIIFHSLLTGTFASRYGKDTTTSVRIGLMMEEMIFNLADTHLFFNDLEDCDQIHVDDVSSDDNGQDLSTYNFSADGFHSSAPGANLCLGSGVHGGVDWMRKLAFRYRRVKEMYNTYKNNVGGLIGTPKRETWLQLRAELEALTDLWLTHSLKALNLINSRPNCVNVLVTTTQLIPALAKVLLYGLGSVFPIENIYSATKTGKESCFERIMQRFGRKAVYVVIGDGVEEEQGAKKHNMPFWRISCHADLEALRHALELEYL
Target sequence (Q15475 whole entry, looked up): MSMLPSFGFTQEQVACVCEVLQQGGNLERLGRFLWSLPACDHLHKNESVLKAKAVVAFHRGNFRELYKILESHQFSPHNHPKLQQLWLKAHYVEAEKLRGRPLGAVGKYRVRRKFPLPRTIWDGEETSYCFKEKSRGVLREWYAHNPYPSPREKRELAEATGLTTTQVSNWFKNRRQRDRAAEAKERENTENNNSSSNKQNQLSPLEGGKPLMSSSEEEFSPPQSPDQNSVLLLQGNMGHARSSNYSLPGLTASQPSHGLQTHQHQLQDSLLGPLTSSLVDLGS
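Compounds are tested against tagged Six1 and Eya2 proteins bridged by glutathione donor and nickel acceptor beads; after a one-hour incubation at 37 °C without light, AlphaScreen emission is recorded.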
* marks the source's active call; other numbers are inactive results; u = inconclusive; x = not tested or not shown; & = joins results of further samples; [ ] = another dose, or the depositor's remark. Rows were taken by chance, and some 1% of all compounds hit somewhere here.

SMILES	PINK1 expr mod	TRPML1 inh	D2 agonist	D2 PAM	TRPML1 agonist	Six1-Eya2 blk
O=C1c2ccccc2C(=O)C1c1ccc2ccccc2n1	1.6%&1.1%&0.8%	3	-3.3	-8	-0.4&-0.3&-0.3	-2
O=C(Cn1c(=O)n(-c2ccc(F)cc2)c(=O)c2sc3ccccc3c21)N1CCCC1	1.7%	10	x	x	-0.6	x
O=C(Oc1ccc(N(Cc2cccs2)C2=NS(=O)(=O)c3ccccc32)cc1)c1ccco1	3.0%	11	-2.8	1	0.3	-10
CCCn1c(N2CCN(Cc3cccc(C)c3)CC2)nc2c1c(=O)[nH]c(=O)n2C	1.2%	-5	-4.5	-9	0.3	-11
O=C(Nc1nccs1)c1ccc(F)c(S(=O)(=O)N2CCOCC2)c1	1.6%	-22	-2.5	15	-0.7	-6
CCCCN(C(=O)c1cccc(-n2cccc2)c1)c1c(N)n(CCC)c(=O)[nH]c1=O	1.1%	5	2.8	1	0.2	-15
Cc1nn(CCC#N)c2[nH]c(=O)cc(C(F)(F)F)c12	1.2%	-6	-0.3	0	0.4	8
CCN1CCN(c2ccc(S(=O)(=O)N3CCOCC3)cc2NC(=O)c2cc(Cl)nc3ccccc23)CC1	-0.6%	3	-5.0	-6	-0.1	-1
COc1ccc(C(=O)CSc2nncn2C)cc1	0.2%	34	-2.5	-6	-1.0	2
Cc1ccc(NC(=O)C2CC(=O)N(c3ccc(OC(C)C)cc3)C2)cc1 (stereo not given)	-1.5%	-4	x	x	1.6	x
CCOc1ccc(CCNC(=O)C2CC(=O)N(Cc3ccc(C)cc3)C2)cc1OCC (stereo not given)	2.0%	-12	-3.0	29	-0.4	7
COc1ccc(OC)c(C2=NOC(C(=O)Nc3ccccc3SC)C2)c1 (stereo not given)	-1.0%	-6	-0.7	0	1.2	4
CC(C(=O)NC1=NCCS1)N1C(=O)c2ccccc2C1=O (stereo not given)	-0.4%	14	-1.2	-4	-0.6	9
CC1CCC(NCCNC(=O)c2ccco2)CC1 (stereo not given)	1.6%	27	-5.1	-15	-0.3	0
C/C(=N/Nc1nc(C)c(C)s1)c1cccc([N+](=O)[O-])c1	-1.3%	9	-1.9	-21	-0.7	4
Cc1cccn2c(=O)c(/C=C3\SC(=S)N(CC(C)C)C3=O)c(NCCCOC(C)C)nc12	-1.9%	-8	1.6	11	19	6
CCOC(=O)c1c(NC(=O)CSc2nnc(CNc3ccc(OC)cc3)n2C)sc(C)c1C	-1.9%	15	-4.4	-14	1.4	-29
CCN(CC)S(=O)(=O)c1ccc2oc(SCC(=O)Nc3cc(C)on3)nc2c1	-1.1%	4	-4.5	-13	-1.0	-5
CC1CCCCN1C(=O)c1cnn2c(C(F)(F)F)cc(-c3ccco3)nc12 (stereo not given)	1.0%	-17	-5.4	-6	0.3	-15
O=C(O)CCc1ccc(-c2ccc(Br)cc2)n1NC(=O)c1ccc([N+](=O)[O-])cc1	0.6%	-3	-4.5	-9	-0.7	1
CC(=O)Oc1ccc2c(c1)C(=O)c1ccccc1C2=O	-0.5%	3	-14	-12	4.9	-27
COc1ccc(C(CNC(=O)c2oc3cc(C)c(Cl)cc3c2C)N2CCCCC2)cc1 (stereo not given)	0.4%&1.0%	-9&12	0.8	-12	1.4&-1.1	5
Cc1ccc(N=Nc2c(N)[nH]n3c(=O)cc(-c4ccccc4)nc23)cc1	-4.0%	-9	-2.8	-12	3.5	2
COc1ccccc1CC(=O)Nc1ccc(C(=O)N2CCCCC2)cc1	-0.1%	-8	-1.9	u	0.4	1
NC(=O)CCC(C(=O)O)N1C(=O)c2ccc(O)cc2C1=O (stereo not given)	-0.9%	1	0.6	-7	0.4	-4
CCC1CCCCN1CCCNC(=O)c1ccc2c(c1)N(Cc1cccc(C)c1)C(=O)c1ccccc1S2(=O)=O (stereo not given)	0.8%	-10	x	x	0.2	x
Cc1cc(N2CCN(C)CC2)nc2ccc(NC(=O)Nc3ccc(F)cc3F)cc12	2.1%	5	x	x	1.3	x
CC1C(=O)N(Cc2cn(CCC3OCCO3)nn2)CCS(=O)(=O)N1Cc1ccc(-c2ccc(Cl)cc2)cc1 (stereo not given)	20%	-2	-5.0	3	1.5	7
N#Cc1ccc(C(=O)NC(=S)N2CCOCC2)cc1	-0.8%	-12	-2.1	-10	0.0	8
COc1cccc(NC(=O)CSc2ccc3nnc(-c4ccncc4)n3n2)c1	-0.3%	-10	-0.3	-1	-0.8	-15
Cc1c(C)n(CCCN(C)C)c2ncnc(NCc3ccccc3)c12	1.8%	-14	-0.3	-11	-0.4	-7
CCN(CC)C(=O)n1cnc(-c2ccccc2)c1-c1ccccc1	-2.8%	-6	-3.5	3	-0.2	1
Cc1ccc2c(c1)C(c1ccccc1)N(C(=O)c1ccc(OC(C)C)cc1)CC(=O)N2 (stereo not given)	-0.4%	1	x	x	0.5	x
O=C(NN1CCCCC1)c1cccc2ccccc12	0.2%	-12	-2.3	-3	0.6	2
Cc1ccc(C)c(NC(=O)c2nc(Cl)ccc2Cl)c1	3.3%	-8	7.4	-18	4.2	9
C[C@@H]1CN([C@H](C)CO)C(=O)CCCn2nncc2CO[C@H]1CN(C)Cc1cccc2c1OCCCO2	1.7%	x	-3.6	x	x	2
O=S(=O)(Cc1ccc(Cl)cc1)NCc1cccnc1	2.8%	0	-4.3	-5	3.1	10
O=S(=O)(NCCn1ccc2ccccc21)c1ccccc1	2.0%	-6	-3.2	-3	-0.6	-3
COc1ccc(NC(=O)N(C)C[C@H]2Oc3ccc(NC(=O)NC4CCCCC4)cc3C(=O)N([C@H](C)CO)C[C@@H]2C)cc1	-0.3%	25	-1.0	-6	-1.0	7
CC(=O)Nc1cc(N2C(=O)CCC2=O)ccc1Cl	-2.5%	-1	-2.4	-22	0.9	-4
O=C(Nc1ccc(-c2nc3ccccc3[nH]2)cc1)C1CCCO1 (stereo not given)	-0.1%[38.3 µM]	7	2.0	14	0.5	-5
Cc1cc(NC(=O)c2ccc(S(=O)(=O)N3CCOCC3)cc2)no1	-1.9%	-15	1.0	-17	0.6	2
Cc1ccc(C)c(NS(=O)(=O)c2cc(C(=O)NCc3ccccn3)ccc2Cl)c1	2.6%[38.3 µM]	-4	-0.9	-2	1.0	-2
Cc1ccc(CNC(=O)NCc2ccccc2)cc1	1.4%	-2	-2.1	-6	0.7	5
CCCC(=O)N1CCC1(C)C(=O)Nc1ccccn1 (stereo not given)	1.2%	x	-4.9	-2	-1.1	-16
O=C(c1ccccc1Br)N1CCN(c2ncccn2)CC1	-0.9%	-11	-1.6	-7	-1.2	1
O=C(c1ccc2c(c1)OCO2)N1CCCc2ccccc21	5.9%	-6	1.2	-13	-0.6	12
CC(C)CCN1C(=O)c2ccccc2CC1(C)C(=O)NC1CCCCC1 (stereo not given)	1.9%	39	x	x	0.3	x
CC(=O)Oc1c(C)c(OC(C)=O)c2c(c1C(C)=O)OC1CC(=O)C(C(C)=O)=C(O)C21C (stereo not given)	-0.9%	18	-1.6	21	3.3	5
COC(C(=O)Nc1ccc(S(=O)(=O)Nc2cccc3ccccc23)cc1)c1ccccc1 (stereo not given)	-2.0%	1	1.4	5	0.8	-10
CC(OC(=O)c1ccco1)C(=O)NC1CCCCC1 (stereo not given)	0.6%	34	-4.4	-11	-0.1	3
COc1cccc(CC(=O)NC2CCSc3ccccc32)c1 (stereo not given)	-1.0%	11	-2.8	-9	0.6	-2
COC(=O)c1ccccc1NC(=O)Cn1c(=O)cc(C)c2c(C)nn(-c3cccc(Cl)c3C)c21	0.2%	2	x	x	-0.5	x
CC(C)=CC(=O)Nc1ccc(OCc2ccccc2)cc1	1.3%	-2	0.3	-4	3.1	10
O=C(N/N=C/c1ccc(OCC(=O)N2CCCCC2)cc1)c1ccccc1O	1.4%	-19	0.6	-13	0.6	-4
COc1ccc(C(=O)Nc2ccccc2N2CCN(C(=O)C(C)C)CC2)cc1Cl	0.5%	1	0.6	-5	1.3	-6
Cc1ccc(NC(=O)CCN2CCN(C/C=C/c3ccccc3)CC2)cc1C	1.3%	4	2.1	-21	0.7	-1
COc1ccc(OC)c(S(=O)(=O)NC(=O)C2(C)CCN2C(=O)C2(c3ccc(Cl)cc3)CC2)c1 (stereo not given)	1.5%	x	-4.3	-6	-0.5	1
O=C(CN1CCN(C/C=C/c2ccccc2)CC1)NCc1ccccc1	-0.9%	1	-0.8	-10	0.4	-4
COc1ccc(N(C)S(=O)(=O)c2cccc(C(=O)NC3=NCCS3)c2)cc1	-0.4%	-16	-3.9	-9	0.7	7

Further compounds
SMILES	PINK1 expr mod	TRPML1 inh	D2 agonist	D2 PAM	TRPML1 agonist	Six1-Eya2 blk
COc1ccc(S(=O)(=O)N2CCOCC2)cc1NC(=O)COc1cccnc1[N+](=O)[O-]	-1.0%	-2	-5.4	-3	-0.3	u
CCOc1ccccc1CN1CCNC(=O)C1CC(=O)N(C)CCc1ccccn1 (stereo not given)	-0.4%	7	2.3	-14	0.0	4
O=[N+]([O-])c1ccccc1N/N=C\c1ccccc1Cl	0.5%	-9	-0.9	-10	0.2	-18
O=C(c1ccc([N+](=O)[O-])cc1)N1CCN(C2=NS(=O)(=O)c3ccccc32)CC1	0.4%	-11	2.5	-9	0.2	2
COc1cc(N2C(=O)CSC23C(=O)N(Cc2ccc(C)cc2)c2ccccc23)cc(OC)c1OC (stereo not given)	-0.1%	-7	x	x	2.0	x
CCN1C(=O)C(NC(C)=O)c2cc(Br)ccc21 (stereo not given)	-0.9%	-11	-6.4	-18	0.1	2
COc1ccc(CNC(=O)Cn2ccc([N+](=O)[O-])n2)cc1OC	-0.1%	26	-3.9	0	0.1	0
CCOc1ccc2nc(N(Cc3cccnc3)C(=O)C3CCCCC3)sc2c1	4.5%	39	x	x	3.3	x
Cc1cc(C(=O)N2CCCC(N3CCN(c4ccccc4C)CC3)C2)no1 (stereo not given)	1.4%	-2	-4.0	-24	0.4	4
COC(=O)c1c(C)[nH]c(C)c1-c1ccc(C)cc1	-1.0%	-3	-5.3	-18	2.9	-14

An excerpt of these results, with values under each structure.
The line under a structure holds: PINK1 expr mod, TRPML1 inh, D2 agonist, D2 PAM, TRPML1 agonist, Six1-Eya2 blk
- O=[N+]([O-])c1ccccc1N/N=C\c1ccccc1Cl
  0.5%, -9, -0.9, -10, 0.2, -18
- O=C(c1ccc([N+](=O)[O-])cc1)N1CCN(C2=NS(=O)(=O)c3ccccc32)CC1
  0.4%, -11, 2.5, -9, 0.2, 2
- COc1cc(N2C(=O)CSC23C(=O)N(Cc2ccc(C)cc2)c2ccccc23)cc(OC)c1OC (stereo not given)
  -0.1%, -7, x, x, 2.0, x
- CCN1C(=O)C(NC(C)=O)c2cc(Br)ccc21 (stereo not given)
  -0.9%, -11, -6.4, -18, 0.1, 2
- COc1ccc(CNC(=O)Cn2ccc([N+](=O)[O-])n2)cc1OC
  -0.1%, 26, -3.9, 0, 0.1, 0
- CCOc1ccc2nc(N(Cc3cccnc3)C(=O)C3CCCCC3)sc2c1
  4.5%, 39, x, x, 3.3, x
